Source: PubChem BioAssay
APEX1 inh = APE1 (human) endonuclease inhibition; P27695; recombinant APE1, TAMRA/BHQ-2 abasic DNA cleavage fluorescence; Potency, µM (highest dose often 65.8 µM), for inactives: at the top dose activity change, negative = inhibition, most hits filed as inhibitors; 350,000 tested, 0.35% active; AID 2517;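 note: plate controls were vehicle for no effect and reference inhibitor for full effect; nearly all actives have a fitted effect of over 55% in size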
Target sequence (P27695 whole entry, looked up): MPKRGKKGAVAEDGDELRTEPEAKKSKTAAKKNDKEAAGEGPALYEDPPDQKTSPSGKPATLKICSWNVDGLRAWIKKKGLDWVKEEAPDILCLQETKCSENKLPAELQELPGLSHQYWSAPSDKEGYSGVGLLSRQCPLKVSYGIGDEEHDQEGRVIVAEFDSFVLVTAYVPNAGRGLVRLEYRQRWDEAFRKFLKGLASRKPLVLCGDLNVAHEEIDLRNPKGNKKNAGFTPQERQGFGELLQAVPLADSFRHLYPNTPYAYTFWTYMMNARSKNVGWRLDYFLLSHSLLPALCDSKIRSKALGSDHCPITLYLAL
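Substrate: short duplex with […] THF abasic site, 5'-TAMRA and 3'-BHQ-2, 50 nM final. APE1 at 0.75 nM, preincubated 15 min RT with compound. Fluorescence increase from first to third read measured activity.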
BLM inh = blocks DNA unwinding by human BLM helicase. P54132. recombinant BLM DNA unwinding, fluorescence dequenching. Potency, µM (highest dose often 56.1 µM), for inactives: at the highest dose activity change, negative = inhibition, hits mostly inhibitors. 350,000 tested, 0.2% active;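 note: plate controls were vehicle for no effect and no enzyme for full effect; nearly all actives have a fitted effect of over 35% in size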
Active calls of the source: *; ? = inconclusive; / = no result given; & = joins results of further samples; [ ] = remark or other dose. Calls come from the whole dose curve; as a rule, active = well fitted curve in the direction sought with a large enough effect; inconclusive = small, poorly fitted or top-dose-only effect, or another doubt; inactive = no such curve, though single readings can be large; an effect the other way counts as inactive or inconclusive. Potency is the fitted concentration of half-maximal effect. These rows are one share of the data; most or all hits stand in other tables.

Screens in order – APEX1 inh, BLM inh
> COc1ccc(NC(=O)c2ccc3c(SCC(=O)O)c4c(nc3c2)CCC4)c(OC)c1
    /, -7%
> Cc1ccc(OCC(=O)Nc2nnc(S(=O)(=O)N3CCCCC3)s2)cc1
    -15%, -29%
> O=C(O)COCCN1CCN(C(c2ccccc2)c2ccc(Cl)cc2)CC1 (stereo not given)
    -1%, 5%&-5%&-4%
> N=C(N)c1ccc(OCCCCCOc2ccc(C(=N)N)cc2)cc1 (tested in a mixture with another compound)
    2%, /
> Cc1cccc(OCC(=O)Nc2ccc(S(=O)(=O)Nc3onc(C)c3C)cc2)c1C
    84%[activator], -7%&-8%
> CC(=O)c1ccc(NC(=O)Cc2cccs2)cc1
    -32%, ?
> CC1CCc2c(sc(NC(=O)c3ccc(Cn4cc([N+](=O)[O-])cn4)o3)c2C#N)C1 (stereo not given)
    ?, -29%
> NS(=O)(=O)c1ccc(CCNC(=O)CCc2nc3sc4c(c3c(=O)[nH]2)CCCC4)cc1
    23%, /
> CC(C)NC[C@@H](O)COc1ccc(CC(N)=O)cc1
    ?, /
> N#Cc1c(NC(=O)c2ccco2)sc2c1CCC2
    -1%, -16%
> CC(=O)c1ccc(NC(=O)CCc2nc3sc4c(c3c(=O)[nH]2)CCCC4)cc1
    -11%, /
> NC(=O)c1ccc(NC(=O)CCC(=O)c2cccs2)cc1
    -14%, -17%
> CCN1CCN(CC(=O)Nc2cc(C(F)(F)F)ccc2OCCOC)CC1
    -2%, -1%
> CCNc1c2c3c(cccc3n(C)c1=O)C(=O)c1ccccc1-2
    -11%, -5%
> Cc1cccc(C)c1NC(=O)CN(C)C(=O)CCc1nc2sc3c(c2c(=O)[nH]1)CCCC3
    -20%, /

Record cards, from the list above. Screens in order: APEX1 inh | BLM inh
CC(=O)c1ccc(NC(=O)CCc2nc3sc4c(c3c(=O)[nH]2)CCCC4)cc1 as listed: -11% | /
CC(C)NC[C@@H](O)COc1ccc(CC(N)=O)cc1 as listed: ? | /
CCNc1c2c3c(cccc3n(C)c1=O)C(=O)c1ccccc1-2 as listed: -11% | -5%
CC1CCc2c(sc(NC(=O)c3ccc(Cn4cc([N+](=O)[O-])cn4)o3)c2C#N)C1 (stereo not given) as listed: ? | -29%
Cc1cccc(C)c1NC(=O)CN(C)C(=O)CCc1nc2sc3c(c2c(=O)[nH]1)CCCC3 as listed: -20% | /

In the list so far, these have a COOH group.
Screens in order – APEX1 inh, BLM inh
> COc1ccc(NC(=O)c2ccc3c(SCC(=O)O)c4c(nc3c2)CCC4)c(OC)c1
    /, -7%
> O=C(O)COCCN1CCN(C(c2ccccc2)c2ccc(Cl)cc2)CC1 (stereo not given)
    -1%, 5%&-5%&-4%

Additional records follow.
Screens in order – APEX1 inh, BLM inh
> CC(=O)CC(c1ccccc1)C1C(=O)Oc2ccccc2C1=O (stereo not given)
    /, 3%
> CC(=O)OCC1=C(C(=O)O)N2C(=O)[C@@H](NC(=O)CSc3ccncc3)[C@@H]2SC1
    /, 0%
> N#Cc1ccsc1NC(=O)C1=COCCO1
    -13%, /
> Cc1cc(OCC(=O)OCC(=O)N2c3ccccc3NC(=O)C2(C)C)ccc1Cl
    ?, /
> COC(=O)c1cc(NC(=O)Cc2cccs2)cc(C(=O)OC)c1
    ?, ?
> CN1CCN2c3ccccc3Cc3ccccc3C2C1 (stereo not given)
    3%&-1%&1%&2%, -2%&-4%&4%

2 records drawn at random from the list so far:
Screens in order – APEX1 inh, BLM inh
> N#Cc1ccsc1NC(=O)C1=COCCO1
    -13%, /
> COC(=O)c1cc(NC(=O)Cc2cccs2)cc(C(=O)OC)c1
    ?, ?
